B2AR ag = activates human beta-2 adrenergic receptor causing internalization. actives 0.43% (n = 340,000). Am2.2-beta2AR cells, FAP receptor internalization, flow cytometry; reference of the scale not given here. AID 504454. response, % (test concentration not listed). P07550;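 active = response above a set limit, near 3 SD of response in nonfluorescent compounds, cut at about 42% in these data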;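 also: stock transfer was 100 nL into about 11 µL; a reference agonist was the positive control; negative values mostly stem from fluorescent compounds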
UCH37 inh = human UCH37 deubiquitinating enzyme inhibition. Q9Y5K5. purified proteasome/UCH37, Ub-AMC cleavage fluorescence. inhibition, % (no concentration beside the values). actives 0.33% (n = 330,000);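 active = mean of two replicates above 20%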;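 also: 0% = compound-free wells with enzyme and 100% = wells lacking proteasome; stock transfer was 100 nL into about 20 µL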
Target sequence (Q9Y5K5 whole entry, looked up): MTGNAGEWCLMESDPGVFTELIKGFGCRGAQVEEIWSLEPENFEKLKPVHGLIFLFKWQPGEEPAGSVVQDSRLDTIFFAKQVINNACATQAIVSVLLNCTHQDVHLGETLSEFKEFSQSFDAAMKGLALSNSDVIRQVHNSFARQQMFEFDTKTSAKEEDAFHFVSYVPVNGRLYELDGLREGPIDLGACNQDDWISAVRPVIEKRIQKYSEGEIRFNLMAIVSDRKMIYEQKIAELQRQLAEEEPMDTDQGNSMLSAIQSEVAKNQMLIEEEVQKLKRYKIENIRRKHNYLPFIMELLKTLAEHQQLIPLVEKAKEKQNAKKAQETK
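Material: human UCH37 enzyme supplied as purified proteasome complex / Amount: 0.15 nM proteasome as dispensed / Buffer or medium: pH 7.4 Tris-HCl (50 mM) with ovalbumin, ATP-MgCl2, DTT / Times: preincubation 30 min, reaction 25 min, room temperature / Technique: AMC fluorescence from Ub-AMC cleavage, excitation 355 nm, emission 460 nm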
FGF22 binding = binders of recombinant human FGF22 by thermal shift; SYPRO orange fluorescence; percent of sucrose octasulfate shift, DMSO zero; calls only at 9.99 µM; actives 1.5% (n = 340,000); AID 651658;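 active = melting point raised past a set limit in the mean and every replicate; three in four hits are not shown here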
ALR H2O2 inh = inhibitors of human sulfhydryl oxidase ALR; purified ALR, DTT oxidation, H2O2 HRP-luminol luminescence; AID 485317; P55789; actives 3.8% (n = 290,000); inhibition, % (concentration not given with the values);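 active = mean and each replicate at 75% or more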;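 also: stock transfer was 7.5 nL into about 7.5 µL; 0% = neutral wells and 100% = wells with inactivated enzyme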
Target sequence (P55789 whole entry, looked up): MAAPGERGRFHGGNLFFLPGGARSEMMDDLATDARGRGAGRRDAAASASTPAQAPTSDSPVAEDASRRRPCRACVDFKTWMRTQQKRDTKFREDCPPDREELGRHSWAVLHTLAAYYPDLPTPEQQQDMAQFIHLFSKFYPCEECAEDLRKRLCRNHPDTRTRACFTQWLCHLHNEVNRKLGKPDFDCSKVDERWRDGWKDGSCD
rRNA inh HTS = selective bacterial rRNA inhibition in E. coli | GFP signal change (wild-type ribosome), % (test concentration not listed) | E. coli WT GFP vs humanized-ribosome RFP mutants, fluorescence, 24 h; stronger effect = lower value; DMSO median 0, no signal -100 | actives 1.6% (n = 350,000);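 active = significant combined selectivity score with lowered wild-type GFP, culture density cut under 30%, mutant RFP and density less affected; inactive = any of these conditions unmet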; also: one replicate is shown; some compounds called inactive have numbers as strong as hits
HNF4A DNA FP = change in binding of human HNF4 alpha to DNA; P41235; HNF4a-FITC DNA binding, fluorescence polarization, 1 h; activity change, % at 10 µM; actives 0.3% (n = 360,000); AID 1224865; in the data active = activity change above about 30%, passing the limit was not always enough;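 also: controls were the assay level and a saturating level of protein; the project sought stronger binding though the title names inhibitors; some compounds called inactive have numbers as strong as hits; positive values seem to mean higher polarization but the record does not say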
Ecoli growth = E. coli growth inhibition; Escherichia coli growth, OD600, 23 h; stronger effect = lower value; OD600 absorbance (concentration not given with the values); AID 1053175; actives 0.21% (n = 330,000);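 active = OD600 absorbance below the run mean of sample wells minus 3.6 SD, in any replicate, cut at about 0.56 in these data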;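 also: stock transfer was 300 nL into about 60 µL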
rRNA inh HTS OD600 = recorded beside rRNA inh HTS, whose call it bears; OD600 change, %; measured here: OD600 growth;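 optical density of the mix in the first replicate; 0 = DMSO median and -100 = no signal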
rRNA inh HTS RFP = also measured in rRNA inh HTS; calls as there; RFP signal change, %; measured here: RFP humanized mutant strains;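 first replicate; 0 = DMSO median and -100 = no signal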
* hit, by the source's call; i = inactive; . = not tested or not shown. The list is partial; count on the stated rates, not on these rows.

#	Molecule	B2AR ag	UCH37 inh	FGF22 binding	ALR H2O2 inh	rRNA inh HTS
1	Cc1ccccc1NC(=O)C(C)N1C(=O)c2ccccc2C1=O (stereo unspecified)	1	4.2	i	3	1
2	O=C(CSc1nnc(-c2cccc(S(=O)(=O)N3CCCCC3)c2)o1)c1ccc[nH]1	-2	0.0	.	-3	.
3	CCN1C(=NCCOC)N[C@@H](c2cccc(C(F)(F)F)c2)C(C(=O)OC)=C1C	2	0.1	i	-3	8
4	COc1ccc(OC)c(S(=O)(=O)NC2CCCCNC2=O)c1 (stereo unspecified)	4	2.9	i	.	8
5	O=C(Nc1c(-c2ccccc2)nc2c(Br)cc(Br)cn12)c1ccco1	-6	1.7	.	1	.
6	C(=NNc1nnn(Cc2ccccc2)n1)c1ccccc1	.	.	i	.	6
7	OC(COCc1ccccc1F)CN1CCCCC1 (stereo unspecified)	1	1.6	.	-11	27
8	O=C(c1cc(C2CC2)on1)N1CCN(c2ccc(F)cc2)CC1	5	0.8	i	38	-5
9	O=C(COC(=O)c1ccccc1)NCCCCc1ccccc1	.	.	i	.	-1
10	O=C(COC(=O)c1cc(S(=O)(=O)N2CCOCC2)ccc1F)NC1CC1	9	0.4	i	-8	4
11	Cc1ccccc1OC(=O)c1cccnc1	-9	1.5	i	0	13
12	CCOC(=O)C(C)Oc1ccc(NC(=O)C(Cl)Cl)cc1 (stereo unspecified)	0	-1.0	i	-3	-5

#	rRNA inh HTS OD600	rRNA inh HTS RFP	HNF4A DNA FP	Ecoli growth
1	3	0.1	1.1	0.73
2	.	.	-0.4	0.71
3	-6	2.2	-2.5	.
4	8	0.1	-0.8	0.67
5	.	.	4.7	0.75
6	15	6.2	0.1	.
7	33	2.8	-0.6	0.67
8	-9	-0.3	-3.0	0.69
9	-23	-9.0	-5.0	.
10	3	-4.0	-0.2	0.65
11	12	-0.6	-5.2	0.69
12	-2	0.8	-3.0	0.72

Overlap with the part before: two compounds; new compounds follow.
#	Molecule	B2AR ag	UCH37 inh	FGF22 binding	ALR H2O2 inh	rRNA inh HTS
11	Cc1ccccc1OC(=O)c1cccnc1	-9	1.5	i	0	13
12	CCOC(=O)C(C)Oc1ccc(NC(=O)C(Cl)Cl)cc1 (stereo unspecified)	0	-1.0	i	-3	-5
13	O=C(/C=C/c1ccco1)Nc1nnc(-c2ccco2)s1	-5	-9.1	i	8	5
14	COc1ccccc1CNC(=O)COC(=O)c1cc(S(=O)(=O)N2CCOCC2)ccc1Cl	4	6.2	i	-4	-11
15	CC(=O)N1CCN(C(=O)CNc2cc(C(F)(F)F)ccc2OCC(F)(F)F)CC1	-5	3.3	.	6	-3
16	O=C(c1ccc(N2CCCCS2(=O)=O)cc1)N1CCN(c2ccc(N3CCOCC3)nn2)CC1	5	-255	i	6	15
17	CCN(CC)S(=O)(=O)c1ccc(-c2ccc(S(=O)(=O)N(CC)CC)cc2)cc1	-2	1.8	.	-23	.
18	COCC(=O)N(c1ccc(C(C)C)cc1)C1C=CS(=O)(=O)C1 (stereo unspecified)	-5	5.3	i	-22	5
19	CNC(=O)c1ccccc1Sc1ccccc1CO	4	-0.2	i	-3	7
20	Cc1cccc(C(=O)NNC(=O)c2ccc(F)cc2)c1	3	2.8	i	-2	6
21	NC(=O)c1ccc(C(=O)c2ccc([N+](=O)[O-])cc2)cc1	-7	5.2	.	-16	.
22	Cc1nnc(NC(=O)CSc2nnc(Cc3ccccc3)n2-c2ccccc2)s1	0	2.7	.	-1	.
23	O=C(CN1CCCc2ccccc21)Nc1ccccc1[N+](=O)[O-]	7	0.7	i	37	7
24	CCOC(=O)C(NCCOC)(NC(C)=O)C(F)(F)F (stereo unspecified)	-2	2.4	i	-5	13

#	rRNA inh HTS OD600	rRNA inh HTS RFP	HNF4A DNA FP	Ecoli growth
11	12	-0.6	-5.2	0.69
12	-2	0.8	-3.0	0.72
13	11	4.7	-2.5	0.69
14	-12	2.5	-1.6	0.68
15	2	-3.9	-0.2	0.73
16	11	-2.6	2.1	0.72
17	.	.	1.5	0.74
18	-1	-3.1	-0.3	0.71
19	13	-1.1	1.4	0.62
20	4	5.7	-5.4	0.69
21	.	.	2.9	0.69
22	.	.	0.0	0.71
23	0	-0.1	-1.3	0.72
24	11	-1.9	-0.4	0.61

5 of the entries above in order of the UCH37 inh value, lowest first.
no.	SMILES	UCH37 inh
16	O=C(c1ccc(N2CCCCS2(=O)=O)cc1)N1CCN(c2ccc(N3CCOCC3)nn2)CC1	-255
3	CCN1C(=NCCOC)N[C@@H](c2cccc(C(F)(F)F)c2)C(C(=O)OC)=C1C	0.1
10	O=C(COC(=O)c1cc(S(=O)(=O)N2CCOCC2)ccc1F)NC1CC1	0.4
15	CC(=O)N1CCN(C(=O)CNc2cc(C(F)(F)F)ccc2OCC(F)(F)F)CC1	3.3
18	COCC(=O)N(c1ccc(C(C)C)cc1)C1C=CS(=O)(=O)C1 (stereo unspecified)	5.3

The listing continues:
#	Molecule	B2AR ag	UCH37 inh	FGF22 binding	ALR H2O2 inh	rRNA inh HTS
25	CC(C)(C)CN1CCN(CC#Cc2ccccc2)CC1CCO (stereo unspecified)	1	3.2	i	.	4
26	CCCCNC(=O)C1(C)CCCCN1CC(=O)c1ccc(OC)cc1 (stereo unspecified)	.	.	i	.	9
27	Cc1ccc(C(=O)NCCCN2CCOCC2)cc1N1CCCC1=O	-10	1.6	.	-10	.
28	CC(C)(C)Nc1nc(NCc2cccnc2)nc(N2CCOCC2)n1	-18	4.3	.	-1	.
29	CCC1CCc2c(n(C)c3ccccc3c2=O)O1 (stereo unspecified)	-7	0.1	i	-3	-30
30	COc1cccc(-c2cnc3c(NC=O)cc(-c4ccc(N(C)C)cc4)cn23)c1	.	.	i	.	2
31	COc1ccc(CCC(=O)NNC(=O)Nc2cccc(Cl)c2)cc1	-10	0.5	i	0	0
32	Cc1ccc(C(=O)N/C(=C\c2ccc(F)cc2)C(=O)NCCCn2ccnc2)cc1	7	1.6	i	1	1
33	CCC(=O)c1ccc(OCC(O)CN2CCOCC2)cc1 (stereo unspecified)	-2	2.2	.	-2	.

#	rRNA inh HTS OD600	rRNA inh HTS RFP	HNF4A DNA FP	Ecoli growth
25	4	-1.9	5.0	0.67
26	17	-0.3	3.1	.
27	.	.	-1.9	0.74
28	.	.	2.5	0.71
29	-45	-20	-1.7	0.7
30	4	4.7	4.3	.
31	5	-0.9	8.7	0.68
32	8	-0.3	-3.8	0.66
33	.	.	2.9	0.71

High-throughput results: PubChem, several laboratories
